# High-throughput results from PubChem BioAssay.
# KCNQ2 pot: potentiators of rat KCNQ2 potassium channel | B-score at 10 µM | O88943 | AID 2239 | actives 0.54% (n = 310,000) | CHO-K1 KCNQ2, FluxOR thallium flux fluorescence; stronger effect = higher value;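 active = fluorescence ratio B-score at least 3 SD of library B-scores, with initial fluorescence B-score within 3 SD, cut at about 5.3 in these data; same plate scores as AID 2156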;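 note: B-score of peak minus minimum over baseline fluorescence ratio after K+ and Tl+ stimulus; positive B-score means potentiation of KCNQ2 with more thallium influx and brighter signal; only the inactives scoring about 0 or higher are listed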
# Target sequence (O88943 whole entry, looked up): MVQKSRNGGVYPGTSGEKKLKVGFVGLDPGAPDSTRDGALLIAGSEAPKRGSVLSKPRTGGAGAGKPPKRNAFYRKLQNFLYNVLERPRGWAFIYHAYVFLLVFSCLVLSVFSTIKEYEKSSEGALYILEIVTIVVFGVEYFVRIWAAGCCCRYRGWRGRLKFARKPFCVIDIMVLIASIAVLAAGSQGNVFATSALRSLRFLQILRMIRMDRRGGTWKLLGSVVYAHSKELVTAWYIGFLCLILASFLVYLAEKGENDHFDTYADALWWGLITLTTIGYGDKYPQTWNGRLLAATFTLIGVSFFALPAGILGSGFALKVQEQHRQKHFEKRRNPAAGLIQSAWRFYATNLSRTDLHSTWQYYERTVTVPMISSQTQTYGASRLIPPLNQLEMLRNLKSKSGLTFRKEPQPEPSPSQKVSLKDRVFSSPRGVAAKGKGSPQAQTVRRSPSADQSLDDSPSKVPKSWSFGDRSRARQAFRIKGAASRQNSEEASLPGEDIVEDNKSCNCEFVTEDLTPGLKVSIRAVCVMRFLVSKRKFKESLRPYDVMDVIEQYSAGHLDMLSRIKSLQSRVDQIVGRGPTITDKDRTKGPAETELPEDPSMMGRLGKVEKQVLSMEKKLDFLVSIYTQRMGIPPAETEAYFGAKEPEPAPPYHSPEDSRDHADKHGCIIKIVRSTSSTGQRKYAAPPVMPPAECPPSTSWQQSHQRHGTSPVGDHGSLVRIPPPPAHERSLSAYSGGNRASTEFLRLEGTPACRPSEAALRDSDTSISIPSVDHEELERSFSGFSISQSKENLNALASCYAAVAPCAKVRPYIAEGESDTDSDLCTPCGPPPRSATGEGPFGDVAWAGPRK
# KCNQ2 pot baseline: further read-out of KCNQ2 pot, marked with its call; B-score; compound at 10 µM; measured here: initial fluorescence intensity artifact check;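 brightness before thallium and not channel activity; 0 = typical well and far values either way flag optical interference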
# * = called active by the depositor. Some of the compounds tested. The share of hits here may be higher or lower than overall.
SMILES,KCNQ2 pot,KCNQ2 pot baseline
COCc1cc(CN2CCCC(C(=O)Nc3cccc(-n4cnnn4)c3)C2)ccc1OC (configuration not stated),0.02,-0.07
CC1(C)CC(=O)C(N=Nc2ccc(OC(F)F)cc2)=C(O)C1,1.32,0.52
C=CCn1c(=O)c2c(nc(-c3ccc(S(=O)(=O)O)cc3)n2C)n(C)c1=O,0.5,0.61
O=C(Cn1cnc2ccccc2c1=O)NC1CCS(=O)(=O)C1 (configuration not stated),0.22,-0.53
COc1ccc(-c2ccc(N(C)C)cc2)cc1[C@H]1[C@H]2C=CC[C@@H](C)[C@@H]2C(=O)N1Cc1ccccc1,3.18,3.18
Cc1c(CN(C)C)c2c(n1C)C(=O)c1ccc(Br)cc1-2,2.4,0.59
O=C(NCCC1CCCCN1S(=O)(=O)c1ccccc1)C(=O)NCC1CCCO1 (configuration not stated),1.48,-1.71
CCOc1ccc(C2NC(=O)c3ccccc3O2)cc1OCC (configuration not stated),0.09,0.01
CCC(NC(=O)CCc1c(C)c2cc3c(C)c(C)oc3cc2oc1=O)C(=O)N[C@@H](Cc1ccccc1)C(=O)O (some centres not stated),1.68,1.32
CCc1c(C)c2nncn2[nH]c1=O,0.62,2.3
Cc1ccc(C2NC(=O)CCC2[N+](=O)[O-])cc1 (configuration not stated),0.42,-0.01
CCOc1ccc(NC(=S)N2CCC(N(C)CCN3CCOCC3)CC2)cc1,0.27,0.59
Cn1c(N)c(C(=O)COC(=O)CNS(=O)(=O)c2ccc(Cl)c(Cl)c2)c(=O)n(C)c1=O,0.18,-0.05
O=C(NCCOc1nc(N2CCOCC2)nc(N2CCOCC2)n1)Nc1ccc(Cl)cc1,0.01,-1.33
Cc1cc2cc(C#N)c(N3CCN(S(C)(=O)=O)CC3)nc2cc1C,1.35,-1
CCC(=O)N1CCc2cc(S(=O)(=O)CCC(=O)NCCc3ccccc3)ccc21,1.4,-0.47
COc1ccccc1NS(=O)(=O)c1cc(NC(=O)c2cccs2)ccc1N1CCCCC1,0.33,-0.35
Cc1cc(Br)c2c(c1)C(O)(N1CCCCC1C)C(=O)N2 (configuration not stated),0.47,0.48
COc1ccccc1/C=C/C(=O)NCC(=O)N/N=C(\CCC(=O)O)c1ccccc1,0.01,-0.05
COc1ccc(S(=O)(=O)NNC(=O)C2Cc3c(ccc4ccccc34)O2)cc1 (configuration not stated),1.75,1.47
CCC1CCCCN1CCCNC(=O)CSc1nc2nc(C)c(Cc3ccccc3Cl)c(C)n2n1 (configuration not stated),0.89,-0.52
CCOC(=O)C1=C(C)NC(SC)=NC1c1ccccc1 (configuration not stated),0.04,-0.55
O=C(O)c1cccc(Nc2nc(C(F)(F)F)nc3ccccc23)c1,0.59,-3.61
CCCC(=O)N1CCc2cc(OC)c(OC)cc2C1COc1ccccc1OC (configuration not stated),0.21,0.07
Cc1c(O)c(S(=O)(=O)c2ccccc2)c(=O)n(-c2ccccc2)c1-c1ccccc1,1.02,1.03
# Next compounds
SMILES,KCNQ2 pot,KCNQ2 pot baseline
CCOC(=O)c1cnc(-n2cc(C)cn2)nc1NCc1ccc2c(c1)OCO2,0.18,0.69
O=C(Nc1ccc(Cc2ccncc2)cc1)c1ccco1,0.58,-0.13
CC1=CCC(C(=O)O)C(C(=O)O)C1 (configuration not stated),0.31,-0.08
CCN(C(=O)CCS(=O)(=O)c1ccc2c(c1)oc(=O)n2C)c1ccc(OC)cc1,1.99,-0.75
O=C(COc1ccc2ccc(=O)oc2c1)NCc1ccccn1,0.79,0
O=C(CN1C(=O)C2CC=CCC2C1=O)NC1CCCCC1 (configuration not stated),0.6,0.89
COC(=O)C1=NNC(C(=O)c2ccco2)C1c1ccc(OC)cc1 (configuration not stated),0.13,-1.62
Cc1nn(CCOc2ccccc2)c(=O)n1-c1c(F)cccc1F,0.55,0.05
CN1CCN(CCOc2ccc(-c3ccccc3)cc2)CC1,0.99,-0.71
CSc1ccc(CNC2CC2)cc1,0.78,-1.13
COc1ccc(CN2C(=O)c3ccccc3C2=O)cc1C(=O)OC(C)C(=O)NC(N)=O (configuration not stated),1.26,-0.75
CCCN(CCC)S(=O)(=O)c1ccc(C(=O)NCc2n[nH]c(=S)n2-c2ccc(Cl)c(Cl)c2)cc1,0.02,-0.93
CCOC(=O)C1CCCCN1Cc1ccc(F)c(Br)c1 (configuration not stated),0.84,0.7
Cc1nc(-c2cccnc2)sc1C(N)=O,0.32,-0.59
O=C(CSCc1c(Cl)cccc1Cl)Nc1cccnc1,2.34,-0.35
CCCCCNc1nc(-c2ccccc2)cs1,0.01,0.63
COc1cc(C)c(S(=O)(=O)N2CCOCC2)cc1C,0.42,-0.37
Cc1nc(S(=O)(=O)c2ccc(Cl)cc2)c(N(C)C)o1,0.8,0.08
C=C(C)CCC(C)N1CCC(n2nccc2NC(=O)CCCc2ccccc2)CC1 (configuration not stated),0.71,-0.71
O=C(N/N=C/c1nn(-c2ccccc2)cc1-c1ccc(Cl)cc1)c1ccncc1,0.06,-0.2
O=C1N(c2ccc3c(c2)OCCO3)C(c2ccccc2)C1(F)F (configuration not stated),0.31,-0.54
Cc1ccccc1NC(=O)CNC(=O)c1ccc(C(F)(F)F)cc1,0.04,1.29
CCN1/C(=C/c2ccc3cc(C)ccc3[n+]2CC)Sc2ccc3sccc3c21,0.53,0.67
O=C(CSc1nnc(-c2cc(-c3cccs3)nc3ccccc23)o1)NC1CCCCC1,2.22,1.36
COC(C[C@@H]1O[C@@H]1C(=O)[C@@H](C)OCc1ccccc1)OC,1.5,-1.04
# (further entries)
SMILES,KCNQ2 pot,KCNQ2 pot baseline
CCOC(=O)C1=c2/c(=C/c3ccncc3)c(N)c(C(=O)OC)n2C(=O)C(c2ccncc2)S1 (configuration not stated),0.95,1.07
CCCCCCCNc1nc(Cl)nc(NCCO)n1,0.26,-0.01
CCn1nnc(NC(=O)C(C)(c2ccccc2)c2ccccc2)n1,2.94,-0.65
Cc1cnc(C(=O)OCC(=O)C23CC4CC(CC(C4)C2)C3)cn1,0.01,3.48
O=C(Cn1nc2sc3ccccc3n2c(=O)c1=O)c1ccc(Cl)cc1,0.43,-0.19
COc1cc(/C=N/NC(=O)CCc2n[nH]c(=O)[nH]c2=O)cc(OC)c1OC,0.66,0.21
COCCCNC(=O)CCn1c(=O)c2ccccc2n(CC(=O)Nc2ccc(C)cc2C)c1=O,0.89,-3.53
CCCC1=C(C(=O)OCC)C(c2ccc(O)cc2)n2ncnc2N1 (configuration not stated),0.44,-2.6
O=C(O)CCC(=O)Nc1ccc2c(c1)oc1ccccc12,1.7,0.08
COc1ccc(C2=NO[C@@H]3C(=O)N(Cc4ccccc4)C(=O)[C@H]23)cc1OC,0.69,1.43
CC1CC(C)CN(CC(=O)Nc2ccc(S(N)(=O)=O)cc2)C1 (configuration not stated),1.31,0.22
CCOC(=O)c1cnc(SCC(=O)OCC(=O)N(CC)C2CCS(=O)(=O)C2)nc1N (configuration not stated),0.91,-0.01
Cc1ccc(S(=O)(=O)N2CCOCC2)cc1NC(=O)COC(=O)Cn1c(C)csc1=O,1.33,-0.22
COc1ccc(-c2nc(-c3ccc(NC(=O)c4ccc(Br)o4)cc3)no2)cc1OC,0.52,-1.55
CCc1sc(NC(=O)CCC(=O)O)nc1-c1cc2ccccc2oc1=O,0.01,-0.74
Cc1c(C(=O)O)sc2nc(-c3cccs3)cc(C(F)(F)F)c12,4.35,0.53
Cc1ccc[n+](CC(=O)c2ccc(Br)cc2)c1,1.86,0.15
Cc1cc(NS(=O)(=O)c2ccc(NC(=O)C(C)N3C(=O)c4ccccc4C3=O)cc2)nc(C)n1 (configuration not stated),0.33,0.42
CC(C)CCn1c(=O)c2ccccc2n2c(CCl)nnc12,1.58,-0.01
CCNC(=S)Nc1cccc(S(=O)(=O)NC2=NCCC2)c1,0.44,1.78
CN(C)c1nc(N)c([N+](=O)[O-])c(NCc2ccccc2)n1,0.36,1.02
COCc1c(C(=O)N/N=C/C2CC=CCC2)nnn1-c1nonc1N (configuration not stated),0.01,-0.57
COc1ccc(C)cc1NC(=O)C1CCN(S(=O)(=O)c2cccc3cccnc23)CC1,1.65,0.72
Cc1cccn2cc(CNC(=O)CC3CCCC3)nc12,1.57,-1.9
COc1ccc(NC(=O)Nc2cccs2)cc1OC,1.86,-0.24
# The list goes on:
SMILES,KCNQ2 pot,KCNQ2 pot baseline
COc1ccc(CCNC(=O)c2ccc(-c3ccc([N+](=O)[O-])cc3Cl)o2)cc1,0.03,0.05
COc1ccc(OC)c(-n2c(-c3cccc(C)c3)n[nH]c2=S)c1,1.57,-1.53
C=CCOc1c(Br)cc(/C=N\n2nnnc2N)cc1OC,1.69,0.19
O=C(CSc1nnc(COc2ccccc2)o1)Nc1nccs1,0.57,0.51
CCc1ccc(/C=C2/C(=O)N(CC)C(=S)N2C)s1,0.3,0.24
CCC(C)C(=O)Nc1nnc(SCC(=O)NC2CCCCC2)s1 (configuration not stated),2.71,-0.14
CN(Cc1nc(-c2ccccn2)no1)S(=O)(=O)c1ccc(Br)cc1,0.82,0.09
C/C(=N\NC(=O)c1ccccc1)c1ccccc1F,0.79,0.38
COC(=O)c1ccc(CSc2nc3c(cnn3-c3ccccc3)c(=O)[nH]2)o1,0.99,2.23
CCN(c1ccccc1)S(=O)(=O)c1ccc(Cl)nc1,0.89,-0.17
COc1c(Cl)cc(Cl)cc1C(=O)Nc1ccc(NC(=O)c2cccs2)cc1,0.58,0.38
CSCCC(NC(=O)C1CCCC1)c1nnc2ccccn12 (configuration not stated),0.79,0
CCOCCCNC(=O)CN1CCN(c2ccc(F)cc2)CC1,0.64,0.38
O=C(CN1CCN(c2ccccc2F)CC1)N1N=CCC1c1ccccc1 (configuration not stated),0.03,0.3
N#Cc1ccccc1NC(=O)COC(=O)c1ccc(S(=O)(=O)N2CCCC2)cc1,0.06,-0.12
Cc1ccc(NC(=O)CN(C)C(=O)CCC(=O)N2CCOCC2)cc1,0.37,-0.54
O=C(CN1C(=O)NC2(CCCCCC2)C1=O)NC1CCCCCCC1,2,-1.16
COc1cccc(CNC(=O)C2CCC(CNS(=O)(=O)c3cccc4cccnc34)CC2)c1 (configuration not stated),0.64,1.04
CSc1cccc(NC(=O)CCc2ccccc2)c1,0.98,-1.21
CC(C)(C)C1=NN(c2ccc([N+](=O)[O-])cc2)C(c2ccccc2)C1 (configuration not stated),0.03,-1.87
O=[N+]([O-])c1c(NCCO)cc(N2CCC3(CC2)OCCO3)c2nonc12,0.39,-1.26
COc1ccc(S(=O)(=O)Nc2ccc(NC(C)=O)cc2)cc1OC,0.04,-0.07
COc1ccc(/C=C2\NC(=S)N(CC3CCCO3)C2=O)c(OC)c1C (configuration not stated),0.97,-1.2
Cn1c(=O)c(C(=O)NCc2ccccc2)c(O)c2ccccc21,0.51,0.66
O=C(CSc1nnnn1-c1ccc(F)cc1)c1ccc(O)c(O)c1,0.34,-1.1
# Following part.
SMILES,KCNQ2 pot,KCNQ2 pot baseline
COCCSc1nnc(NS(=O)(=O)c2ccc(F)cc2)s1,0.19,-0.7
CC(C)(C)c1ccc(/C=C2/SC(N3CCCC3)=NC2=O)cc1,6.94*,-0.99*
CC(C)c1ccc(Nc2ccc(C(=O)O)cc2[N+](=O)[O-])cc1,2.75,-0.06
O=C(Nc1cc([N+](=O)[O-])ccc1Cl)c1cccnc1,0.07,-0.04
Cc1cnc(NC(=O)C2CC(=O)N(c3cccc(Cl)c3)C2)s1 (configuration not stated),0.77,-1.17
Brc1ccccc1-c1nnc(COc2ncnc3c2cnn3-c2ccccc2)o1,0.44,1.54
Cc1c(C(=O)N2CCCCC2)c(S(=O)(=O)NCCc2ccc(S(N)(=O)=O)cc2)c(C)n1C,1.03,0.03
Cc1csc(SCC(=O)Nc2c(C)n(C)n(-c3ccccc3)c2=O)n1,1.78,0.24
CCOc1ccc(N=C2NC(=O)C(CC(=O)Nc3ccc(OC)cc3)S2)cc1 (configuration not stated),0.18,-0.8
O=C(Nc1cccc(F)c1)c1cccnc1,0.65,0.42
CC(C)C(NS(=O)(=O)c1ccc(Br)s1)C(=O)O (configuration not stated),0.2,1.2
Cc1ccc2nc(N3CCOCC3)c(C=O)c(=O)n2c1,1.38,0.08
CC(C)NC(=O)Cn1nnc(-c2ccc(Cl)cc2)n1,0.05,0.1

# Twelve compounds out of the list, sorted by number of heavy atoms, lowest first:
SMILES,KCNQ2 pot,KCNQ2 pot baseline
O=C(Nc1cccc(F)c1)c1cccnc1,0.65,0.42
CC(C)C(NS(=O)(=O)c1ccc(Br)s1)C(=O)O (configuration not stated),0.2,1.2
CC(C)NC(=O)Cn1nnc(-c2ccc(Cl)cc2)n1,0.05,0.1
Cc1ccc2nc(N3CCOCC3)c(C=O)c(=O)n2c1,1.38,0.08
COCCSc1nnc(NS(=O)(=O)c2ccc(F)cc2)s1,0.19,-0.7
CC(C)(C)c1ccc(/C=C2/SC(N3CCCC3)=NC2=O)cc1,6.94*,-0.99*
Cn1c(=O)c(C(=O)NCc2ccccc2)c(O)c2ccccc21,0.51,0.66
COc1ccc(S(=O)(=O)Nc2ccc(NC(C)=O)cc2)cc1OC,0.04,-0.07
Cc1csc(SCC(=O)Nc2c(C)n(C)n(-c3ccccc3)c2=O)n1,1.78,0.24
CCOc1ccc(N=C2NC(=O)C(CC(=O)Nc3ccc(OC)cc3)S2)cc1 (configuration not stated),0.18,-0.8
Brc1ccccc1-c1nnc(COc2ncnc3c2cnn3-c2ccccc2)o1,0.44,1.54
Cc1c(C(=O)N2CCCCC2)c(S(=O)(=O)NCCc2ccc(S(N)(=O)=O)cc2)c(C)n1C,1.03,0.03
